# Screening results from PubChem BioAssay.
# FGF22 binding: binders of recombinant human FGF22 by thermal shift. calls only at 9.99 µM. SYPRO orange fluorescence; percent of sucrose octasulfate shift, DMSO zero. Q9HCT0. actives 1.5% (n = 340,000);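 active means melting point raised past a set limit in the mean and every replicate; three in four hits are not shown here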
# Target sequence (Q9HCT0 whole entry, looked up): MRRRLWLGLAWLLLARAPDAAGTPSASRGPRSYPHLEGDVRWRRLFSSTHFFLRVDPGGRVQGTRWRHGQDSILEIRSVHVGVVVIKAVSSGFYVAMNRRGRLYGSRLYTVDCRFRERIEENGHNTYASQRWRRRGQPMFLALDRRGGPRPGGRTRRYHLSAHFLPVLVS
# AF4-AF9 inh: inhibitors of human MLL-AF4/AF9 interaction; actives 0.47% (n = 350,000); AlphaScreen, biotin-AF4 peptide binding to FLAG-AF9; AID 651704; inhibition, % at 10 µM;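 active means every replicate reaching a set inhibition limit, whatever the replicate mean, cut at about 25% in these data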;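 further: 0% = plate neutral control median and 100% = total signal loss; the record names both 10 and 1 µM as test concentration; the first replicate is given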
# Target sequence (P42568 whole entry, looked up): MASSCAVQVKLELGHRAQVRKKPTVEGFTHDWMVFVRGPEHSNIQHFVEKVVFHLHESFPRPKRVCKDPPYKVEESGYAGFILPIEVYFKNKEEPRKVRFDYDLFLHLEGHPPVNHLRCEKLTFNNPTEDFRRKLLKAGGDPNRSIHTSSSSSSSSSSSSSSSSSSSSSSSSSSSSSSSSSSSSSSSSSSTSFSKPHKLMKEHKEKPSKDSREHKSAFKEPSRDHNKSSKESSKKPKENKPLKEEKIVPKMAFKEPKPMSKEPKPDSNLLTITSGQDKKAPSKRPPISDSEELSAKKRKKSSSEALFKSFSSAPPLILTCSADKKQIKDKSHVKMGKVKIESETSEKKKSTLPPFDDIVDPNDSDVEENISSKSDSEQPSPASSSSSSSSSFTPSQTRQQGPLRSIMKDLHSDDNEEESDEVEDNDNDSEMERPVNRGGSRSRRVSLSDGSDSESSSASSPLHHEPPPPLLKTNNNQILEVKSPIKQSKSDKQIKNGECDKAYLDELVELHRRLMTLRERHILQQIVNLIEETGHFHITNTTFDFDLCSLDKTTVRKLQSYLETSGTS
# * = called active by the depositor; i = inactive.
# The first 4 records (preview)
# Under each structure – FGF22 binding | AF4-AF9 inh
C[C@@H]1CN([C@@H](C)CO)C(=O)c2cccc(NC(=O)Nc3ccc(F)cc3)c2O[C@H]1CN(C)S(=O)(=O)c1ccc(Cl)cc1
  i | -7.1
COCC(=O)N(C)C[C@H]1Oc2cc(-c3cccc(F)c3)ccc2S(=O)(=O)N([C@H](C)CO)C[C@H]1C
  i | -1.5
O=C(C[C@H]1CC[C@@H](NC(=O)c2cccnc2)[C@@H](CO)O1)NCc1ccncn1
  i | -2.7
C[C@@H]1CCCCO[C@H](CN(C)C(=O)Nc2cccc3ccccc23)[C@@H](C)CN([C@@H](C)CO)C(=O)c2cc(NS(=O)(=O)c3ccccc3)ccc2O1
  i | 1.9

# The list itself, repeating the preview:
# Under each structure – FGF22 binding | AF4-AF9 inh
C[C@@H]1CN([C@@H](C)CO)C(=O)c2cccc(NC(=O)Nc3ccc(F)cc3)c2O[C@H]1CN(C)S(=O)(=O)c1ccc(Cl)cc1
  i | -7.1
COCC(=O)N(C)C[C@H]1Oc2cc(-c3cccc(F)c3)ccc2S(=O)(=O)N([C@H](C)CO)C[C@H]1C
  i | -1.5
O=C(C[C@H]1CC[C@@H](NC(=O)c2cccnc2)[C@@H](CO)O1)NCc1ccncn1
  i | -2.7
C[C@@H]1CCCCO[C@H](CN(C)C(=O)Nc2cccc3ccccc23)[C@@H](C)CN([C@@H](C)CO)C(=O)c2cc(NS(=O)(=O)c3ccccc3)ccc2O1
  i | 1.9
COc1cccc(NC(=O)N(C)C[C@@H]2Oc3cc(C#CC4(O)CCCC4)ccc3S(=O)(=O)N([C@H](C)CO)C[C@@H]2C)c1
  i | -5.6
O=C(C[C@@H]1C[C@@H]2c3cc(NC(=O)C4CCOCC4)ccc3O[C@@H]2[C@H](CO)O1)NCc1cccc(F)c1
  i | -7.0
C[C@H](CO)N1C[C@H](C)[C@@H](CN(C)C(=O)Nc2ccccc2)Oc2c(NC(=O)c3ccc(-c4nccs4)cc3)cccc2C1=O
  i | -2.7
O=C(Nc1ccccc1F)N1CCCCN2[C@@H](CO)[C@H](c3ccc(-c4cccnc4)cc3)[C@@H]2C1
  i | 0.8
COCC(=O)N1[C@@H]2CN(C(=O)c3cccc(OC)c3)c3ccccc3[C@@H]2[C@@H]1CO
  i | -15
O=S(=O)(c1ccccc1)N1C[C@H]2[C@@H](c3ccccc31)[C@H](CO)N2Cc1ccccc1
  i | 1.7
CO[C@H]1CN(C)C(=O)c2cc(NC(=O)c3cnccn3)ccc2OC[C@H](C)N(C)C[C@H]1C
  i | -2.8
CCCC#Cc1ccc2c(c1)O[C@H](CN(C)C(=O)c1ccncc1)[C@@H](C)CN([C@@H](C)CO)S2(=O)=O
  i | -3.8
CN1CCCCN2[C@H](CO)[C@H](c3ccc(C#CC4(O)CCCC4)cc3)[C@@H]2C1
  i | -2.0
CO[C@@H]1CN(C)C(=O)c2ccc(NC(=O)c3ccccc3)cc2OC[C@H](C)N(C)C[C@@H]1C
  i | 1.4
COc1ccc(S(=O)(=O)N2CC[C@H]3[C@@H](CO)N(C)c4ccc(C5=CCCCC5)cc4[C@H]32)cc1
  i | 0.8
COCCN1CCCc2nc(-c3ccc(F)cc3)ccc21
  i | 21
CO[C@H]1CN(C)C(=O)c2cccc(C#N)c2OCC[C@@H]2CC[C@H](OC)[C@@H](CN(C)C(=O)[C@H]1C)O2
  i | 20
C[C@H]1CN([C@@H](C)CO)C(=O)c2cc(NC(=O)CCN3CCOCC3)ccc2O[C@H]1CN(C)Cc1ccc(C(=O)O)cc1
  i | -2.1
CC(=O)N(C)C[C@@H]1Oc2ncc(C3=CCCC3)cc2C(=O)N([C@@H](C)CO)C[C@@H]1C
  i | -4.7
CCCNC(=O)N1CC2(CCN(CC3CCCCC3)CC2)c2c(n(C)c3cc(OC)ccc23)[C@@H]1CO
  i | 14
C[C@H](CO)N1C[C@H](C)[C@H](CN(C)Cc2cncnc2)Oc2ncc(-c3cccc(C#N)c3)cc2C1=O
  i | -0.4
C/C=C/c1ccc2c(c1)O[C@H](CN(C)C(=O)CC)[C@@H](C)CN([C@H](C)CO)S2(=O)=O
  i | -0.7
C[C@@H]1CCCCO[C@H](CN(C)Cc2ccc(C(=O)O)cc2)[C@@H](C)CN([C@@H](C)CO)C(=O)c2cc(NC(=O)Nc3ccc4c(c3)OCO4)ccc2O1
  i | 0.5
COC(=O)C[C@@H]1CC[C@H]2[C@@H](COc3ccc(NC(=O)Nc4c(C)noc4C)cc3C(=O)N2C)O1
  i | -1.2
COCC(=O)N1CCC2(CC1)CN(C(=O)NC1CCCC1)[C@H](CO)c1c2c2ccc(OC)cc2n1C
  i | -2.4
Cc1ccc(S(=O)(=O)N(C)C[C@@H]2OCCCC[C@@H](C)Oc3ccc(NS(=O)(=O)c4c(C)noc4C)cc3C(=O)N([C@@H](C)CO)C[C@@H]2C)cc1
  i | -0.1
C[C@@H]1CN([C@@H](C)CO)C(=O)Cc2cc(NC(=O)Cn3cnnn3)ccc2O[C@H]1CN(C)Cc1ccc(C(=O)O)cc1
  i | -4.5
C[C@H]1CN([C@@H](C)CO)C(=O)Cc2cc(NC(=O)c3ccncc3)ccc2O[C@H]1CN(C)Cc1ccc(C(=O)O)cc1
  i | -3.4
Cc1ccc(S(=O)(=O)Nc2ccc3c(c2)CC(=O)N([C@H](C)CO)C[C@@H](C)[C@@H](CN(C)Cc2ccc(C(=O)Nc4ccccc4N)cc2)O3)cc1
  i | -0.7
COC(=O)C[C@H]1CC[C@H]2[C@H](COc3ccc(NC(=O)c4ccc(F)cc4)cc3C(=O)N2C)O1
  i | -2.2
C[C@H]1CN([C@@H](C)CO)S(=O)(=O)c2ccc(C3=CCCCC3)cc2O[C@H]1CN(C)C(=O)Cc1ccncc1
  i | 8.8
O=C(Cc1ccncc1)Nc1ccc2c(c1)[C@@H]1C[C@@H](CC(=O)N3CCc4ccccc4C3)O[C@@H](CO)[C@@H]1O2
  i | 8.5
C[C@H](CO)N1C[C@H](C)[C@@H](CN(C)C(=O)NC2CCCCC2)Oc2ccc(NS(=O)(=O)c3cccs3)cc2CC1=O
  i | -1.0
Cc1noc(C)c1NC(=O)Nc1cccc2c1O[C@H](CN(C)Cc1ccc(Cl)c(Cl)c1)[C@@H](C)CN([C@H](C)CO)C2=O
  i | 5.2
C[C@@H]1CN([C@H](C)CO)C(=O)c2cc(NS(C)(=O)=O)ccc2O[C@H]1CN(C)C(=O)Nc1cccc2ccccc12
  i | -0.2
C[C@H](CO)N1C[C@H](C)[C@@H](CN(C)S(=O)(=O)c2cccs2)Oc2ccc(NS(C)(=O)=O)cc2C1=O
  i | 0.6
CNC(=O)C[C@H]1CC[C@H]2[C@H](COc3ccc(NC(=O)Nc4cccc(Cl)c4)cc3C(=O)N2C)O1
  i | -1.0
C[C@H]1CN([C@@H](C)CO)C(=O)c2cc(-c3ccc(C#N)cc3)cnc2O[C@H]1CN(C)C(=O)Nc1ccc(F)cc1
  i | -1.7
CN(C)C(=O)[C@H]1[C@H](CO)[C@H]2Cn3c(ccc(C4=CCCC4)c3=O)[C@@H]1N2Cc1cccnc1
  i | 1.7
C[C@H](CO)N1C[C@H](C)[C@H](CN(C)S(=O)(=O)c2ccc(Cl)cc2)Oc2c(NC(=O)c3nc4ccccc4s3)cccc2C1=O
  i | -2.3
CC=Cc1ccc2n(c1=O)C[C@@H]1[C@@H](CO)[C@H](C(=O)NCC3CC3)N(C(=O)C3CCOCC3)[C@H]21 (mixture of isomers)
  i | -0.7
C[C@@H]1CN([C@@H](C)CO)S(=O)(=O)c2ccc(-c3ccc(F)cc3)cc2O[C@@H]1CN(C)S(C)(=O)=O
  i | -8.0
CO[C@H]1CN(C)C(=O)c2ccc(NC(=O)C3CC3)cc2OC[C@@H](C)N(C(=O)c2ccccc2)C[C@H]1C
  i | 0.0
C[C@@H]1CN([C@H](C)CO)C(=O)c2cccc(NS(=O)(=O)c3cn(C)cn3)c2O[C@H]1CN(C)S(=O)(=O)c1cn(C)cn1
  i | 0.8
C[C@@H]1CN([C@@H](C)CO)C(=O)c2cc(NS(=O)(=O)c3cccs3)ccc2O[C@H]1CN(C)S(=O)(=O)c1cn(C)cn1
  i | 0.2

# Single values from the results shown.
# C[C@H]1CN([C@@H](C)CO)C(=O)c2cc(-c3ccc(C#N)cc3)cnc2O[C@H]1CN(C)C(=O)Nc1ccc(F)cc1 | AF4-AF9 inh: -1.7
# O=C(Cc1ccncc1)Nc1ccc2c(c1)[C@@H]1C[C@@H](CC(=O)N3CCc4ccccc4C3)O[C@@H](CO)[C@@H]1O2 | AF4-AF9 inh: 8.5
# CN(C)C(=O)[C@H]1[C@H](CO)[C@H]2Cn3c(ccc(C4=CCCC4)c3=O)[C@@H]1N2Cc1cccnc1 | AF4-AF9 inh: 1.7
# CNC(=O)C[C@H]1CC[C@H]2[C@H](COc3ccc(NC(=O)Nc4cccc(Cl)c4)cc3C(=O)N2C)O1 | AF4-AF9 inh: -1.0
# C[C@@H]1CN([C@@H](C)CO)C(=O)c2cc(NS(=O)(=O)c3cccs3)ccc2O[C@H]1CN(C)S(=O)(=O)c1cn(C)cn1 | AF4-AF9 inh: 0.2

# Additional results follow.
# Under each structure – FGF22 binding | AF4-AF9 inh
CO[C@H]1CN(C)C(=O)c2ccc(NC(=O)NC(C)C)cc2OC[C@@H](C)N(CCC(F)(F)F)C[C@H]1C
  i | 0.0
C[C@@H]1CCCCO[C@H](CN(C)C(=O)CCC(F)(F)F)[C@H](C)CN([C@@H](C)CO)C(=O)c2cc(NC(=O)Nc3ccccc3)ccc2O1
  i | 0.7
C[C@H](CO)N1C[C@H](C)[C@@H](CN(C)C(=O)Nc2cccc3ccccc23)Oc2c(NC(=O)Nc3ccc(F)cc3)cccc2C1=O
  i | -0.6
COc1cccc(C(=O)Nc2ccc3c(c2)C(=O)N(C)[C@H]2CC[C@@H](CC(=O)N[C@@H](C)c4ccccc4)O[C@@H]2CO3)c1
  i | -0.6
C[C@@H]1CN([C@@H](C)CO)C(=O)Cc2cc(NC(=O)CCN3CCOCC3)ccc2O[C@@H]1CN(C)S(=O)(=O)c1ccc(F)cc1
  i | 2.3
CCCN(C)C[C@H]1Oc2cc(C#C[C@@H](C)O)ccc2S(=O)(=O)N([C@@H](C)CO)C[C@H]1C
  i | -1.0
C[C@@H]1CCCCO[C@H](CN(C)C(=O)Nc2ccc3c(c2)OCO3)[C@@H](C)CN([C@@H](C)CO)C(=O)c2cc(NS(C)(=O)=O)ccc2O1
  i | -1.2
C[C@@H]1CN([C@@H](C)CO)C(=O)Cc2cc(NC(=O)c3ccncc3)ccc2O[C@@H]1CN(C)S(=O)(=O)c1cccs1
  i | -2.3
CCCN1[C@@H]2c3ccc(-c4cccnc4)c(=O)n3C[C@@H]2[C@@H](CO)[C@@H]1C(=O)NCCCN1CCOCC1
  i | 1.7
CC=Cc1ccc2n(c1=O)C[C@@H]1[C@@H](CO)[C@H](C(=O)NCCC)[C@H]2N1C(=O)c1ccccc1F (mixture of isomers)
  i | 0.2
CN1C(=O)c2cc(NC(=O)C3CCC3)ccc2OC[C@@H]2O[C@@H](CC(=O)NCC3CCCCC3)CC[C@@H]21
  i | 2.6
CC(C)NC(=O)N(C)C[C@H]1Oc2ccc(NC(=O)CCCCCC(=O)Nc3ccccc3N)cc2C(=O)N([C@H](C)CO)C[C@H]1C
  i | -3.2
C[C@H](CO)N1C[C@H](C)[C@@H](CN(C)C(=O)Nc2ccc(F)cc2)OCCCC[C@H](C)Oc2ccc(NC(=O)c3ccncc3)cc2C1=O
  i | 0.4
C[C@H](CO)N1C[C@H](C)[C@H](CN(C)C(=O)Nc2ccc3c(c2)OCO3)Oc2c(NC(=O)Nc3ccc(F)cc3)cccc2C1=O
  i | 6.0
COC(=O)C[C@H]1CC[C@H]2[C@@H](COC[C@@H](O)CN2S(=O)(=O)c2ccc(F)cc2)O1
  i | -2.8
Cc1noc(C)c1S(=O)(=O)N(C)C[C@@H]1OCCCC[C@@H](C)Oc2ccc(NS(=O)(=O)c3cn(C)cn3)cc2C(=O)N([C@H](C)CO)C[C@@H]1C
  i | -2.7
COc1ccccc1C#Cc1cnc2c(c1)C(=O)N([C@@H](C)CO)C[C@H](C)[C@H](CN(C)C(=O)c1ccc3c(c1)OCO3)O2
  i | 2.6
COc1ccc(NC(=O)N(C)C[C@@H]2Oc3ccc(NS(=O)(=O)c4ccc(F)cc4)cc3C(=O)N([C@H](C)CO)C[C@H]2C)cc1
  i | -3.8
O=S(=O)(N[C@@H]1CC[C@H](CCn2cc(-c3ccccc3F)nn2)O[C@H]1CO)c1ccc(Cl)cc1
  i | 1.7
Cc1cccc(S(=O)(=O)N2C[C@H]3[C@@H](c4ccccc42)[C@H](CO)N3C(=O)c2ccccc2)c1
  i | 4.9
C[C@@H]1CCCCO[C@@H](CN(C)Cc2ccc(C(=O)Nc3ccccc3N)cc2)[C@@H](C)CN([C@H](C)CO)C(=O)c2cc(NC(=O)Nc3ccccc3)ccc2O1
  i | 0.7
CO[C@@H]1CN(C)C(=O)c2cc(NC(=O)C3CCC3)ccc2OC[C@@H](C)N(Cc2ccc(F)cc2)C[C@@H]1C
  i | 3.2
C[C@@H]1CN([C@H](C)CO)C(=O)c2cccc(NC(=O)NC3CCCCC3)c2O[C@@H]1CN(C)S(=O)(=O)c1ccccc1
  i | 1.3
CCS(=O)(=O)NCC[C@@H]1CC[C@@H](NC(=O)C2CCCC2)[C@@H](CO)O1
  i | -4.3
C[C@H]1CN([C@@H](C)CO)C(=O)Cc2cc(NS(=O)(=O)c3ccccc3)ccc2O[C@H]1CN(C)Cc1ccc(C(F)(F)F)cc1
  i | -11
CC(C)NC(=O)Nc1ccc2c(c1)C(=O)N([C@@H](C)CO)C[C@@H](C)[C@H](CN(C)S(=O)(=O)c1cccs1)OCCCC[C@@H](C)O2
  i | 0.0
Cc1ccc(S(=O)(=O)Nc2ccc3c(c2)C(=O)N([C@H](C)CO)C[C@@H](C)[C@H](CN(C)S(=O)(=O)c2ccccc2)O3)cc1
  i | -0.9
COc1cccc(NC(=O)N(C)C[C@@H]2Oc3cc(C#Cc4ccc(F)cc4)ccc3S(=O)(=O)N([C@H](C)CO)C[C@@H]2C)c1
  i | -15
CO[C@H](CN(C)C(=O)c1cnccn1)[C@@H](C)CN([C@@H](C)CO)S(=O)(=O)c1ccccc1
  i | 0.1

# A portion of the library; the hit share may differ from the screen's.
